Source: PubChem BioAssay (SRMLSC)
H5N1 antiviral = MDCK cell protection from H5N1 avian flu. AID 740. inhibition, % at 50 µM. 96,000 tested, 0.07% active. cytopathic effect, luminescence, 72 h; hits give high values; no value below 0 was filed and about half of the inactive calls have no number; reference of the scale not given here; in the data active = inhibition above about 25%
* marks the source's active call; other numbers are inactive results; i = inactive. These rows are one share of the data, so the mix of outcomes need not match the whole.

| molecule | H5N1 antiviral |
| --- | --- |
| CC1=CC(C)(C)N2C(=O)C3(C(C#N)=C(N)Oc4cc(C)oc(=O)c43)c3cccc1c32 (configuration not stated) | i |
| CCCOc1c(Cl)cc(/C=N/O)cc1OCC | i |
| CCS(=O)(=O)N1CCC(C(=O)NCCCN2CCCC2)CC1 | i |
| COc1ccc(N2CCN(Cc3nc4c(c(=O)[nH]c(=O)n4C)n3CCCc3ccccc3)CC2)cc1 | 1.3 |
| COc1ccc(CN2C(=O)c3ccccc3C2C(=O)NC2CCCC2)c(OC)c1 (configuration not stated) | i |
| O=C(O)c1ccccc1C(=O)OCCCCOC(=O)c1ccccc1C(=O)O | i |
| Cn1cccc1C(=O)C(=O)Nc1ccc(Cl)cc1 | i |
| Cc1[nH]nc2c1C(c1ccsc1C)C(C#N)=C(N)O2 (configuration not stated) | i |
| c1ccc(CCn2nnnc2C(c2cccnc2)N2CCN(c3ccccc3)CC2)cc1 (configuration not stated) | 4.3 |
| O=c1cc(C(F)(F)F)[nH]c(=O)n1C1CCCCC1 | i |
| CC(C)(C)NCc1ccccc1OCc1cccs1 | 1.1 |
| CCc1nc(SCC(=O)NCCc2ccccc2)c2oc3ccccc3c2n1 | 1.2 |
| Cc1cccc(S(=O)(=O)Nc2cccc3c2C(=O)c2ccccc2-3)c1 | i |
| Cc1c(N2C(=O)/C(=C3/C(=O)N(C)c4ccccc43)SC2=S)c(=O)n(-c2ccccc2)n1C | i |
| COc1ccc(C(=O)Nc2ccccc2C(=O)N/N=C/c2ccccc2OC)cc1 | i |
| Cn1c(=O)c2c(ncn2CC(=O)Nc2ccc(N3CCOCC3)cc2)n(C)c1=O | i |
| CC1=CC(C)(C)N(C(=O)c2ccccc2)c2ccccc21 | 1.3 |
| O=C(CSc1ccccn1)c1ccc(F)cc1 | i |
| CN(C)Cc1nc2ccccc2c(=O)n1Cc1nc(-c2cc3ccccc3o2)cs1 | i |
| CCc1ccc(OCc2nc(-c3ccccn3)no2)c(Br)c1 | i |
| CC(=O)N(/N=C1\Sc2ccccc2C1=O)c1ccc(C)cc1C | i |
| Clc1ccc(-c2cc(CSc3ccccc3)on2)cc1 | 0.3 |
| CCOC(=O)c1cccc(NC(=O)Cn2c(CC(=O)NC)nc3ccccc32)c1 | 1.0 |
| CCOC(=O)c1csc(NC(=O)CSc2nnc(C3CC3)n2C)n1 | i |
| CC1Cc2ccccc2N1C(=O)CSc1nnc(CSc2ncccn2)n1C (configuration not stated) | 0.8 |
| Cc1nn(C(C)C(=O)NNC(=S)Nc2ccc(Cl)cc2)c(C)c1[N+](=O)[O-] (configuration not stated) | i |
| O=S(=O)(c1cccs1)N1CCN(C/C=C/c2ccccc2)CC1 | 0.4 |
| CCCCNC(=O)C1CCN(S(=O)(=O)c2cnc[nH]2)CC1 | 0.1 |
| CC(=O)c1ccc(N(C)C)c2c(N(C)C)cccc12 | 0.1 |
| Cc1nc(SC(C(=O)c2ccccc2)c2ccccc2)n[nH]1 (configuration not stated) | 0.3 |
| COc1cccc(OCCCCN2CC(C)OC(C)C2)c1 (configuration not stated) | 0.6 |
| Cc1nc(SCC(=O)c2ccc(Cl)cc2)c([N+](=O)[O-])[nH]1 | 0.6 |
| CCN(CC)CC(=O)Nc1ccc2c(c1)Nc1ccccc1CC2 | i |
| N#Cc1c(-c2ccco2)nc(SCc2ccc(F)cc2)[nH]c1=O | 0.7 |
| Cc1ccc(-c2cc(N)n3nc(-c4ccc(C)cc4)cc3n2)cc1 | i |
| CC(C)n1c(C(=O)OCC(=O)NCc2ccc3c(c2)OCO3)cc2occc21 | 1.2 |
| Cc1[nH]c(=O)[nH]c(=O)c1S(=O)(=O)N1CCCC(C(=O)N2CCC(Cc3ccccc3)CC2)C1 (configuration not stated) | i |
| Cn1c(SCc2nc3ccccc3n2CCO)nc2ccccc21 | 0.4 |
| CCOC(=O)N1CCC(NC(=O)c2cc(S(=O)(=O)N3CCOCC3)ccc2F)CC1 | 0.5 |
| O=C(Nc1ccccc1)NC1(C(=O)NCc2cccs2)CCCCC1 | 0.4 |
| Cn1c(SCC(=O)N/N=C/C=C\c2ccco2)nc2ccccc21 | 2.0 |
| N#CC1=C2SCN(c3ccc(F)cc3)CN2C(=O)CC1c1cccc(F)c1 (configuration not stated) | 0.8 |
| CCCCCn1c(=O)[nH]c2cc(C(=O)N3CCN(Cc4ccc5c(c4)OCO5)CC3)ccc2c1=O | i |
| CCCN1C(=O)c2ccccc2NC1c1ccc(OC)cc1O (configuration not stated) | 0.2 |
| Cc1cc(C(=O)N2CCN(Cc3ccccc3)CC2)on1 | 0.2 |
| O=c1c(-c2ccnn2-c2cccc(Cl)c2)cnc2n1CCS2 | 0.1 |
| COc1ccc(NC(=O)CN2CCC3(O)CCCCC3C2c2ccccc2OC)cc1 (configuration not stated) | i |
| CC(C)(C)c1cnnn1-c1ccc(NC(=O)c2ccc(Br)o2)cc1 | 2.9 |
| Fc1ccccc1CSc1nnc(-c2cnccn2)n1Cc1ccco1 | 3.4 |
| Cc1nc(SC2C=CS(=O)(=O)C2)n[nH]1 (configuration not stated) | i |

Ordered by formula weight (high to low): part of the list above
| molecule | H5N1 antiviral |
| --- | --- |
| COc1ccc(CN2C(=O)c3ccccc3C2C(=O)NC2CCCC2)c(OC)c1 (configuration not stated) | i |
| CCc1nc(SCC(=O)NCCc2ccccc2)c2oc3ccccc3c2n1 | 1.2 |
| CCCCNC(=O)C1CCN(S(=O)(=O)c2cnc[nH]2)CC1 | 0.1 |
| CCCN1C(=O)c2ccccc2NC1c1ccc(OC)cc1O (configuration not stated) | 0.2 |
| Cc1nc(SC2C=CS(=O)(=O)C2)n[nH]1 (configuration not stated) | i |

New compounds follow.
| molecule | H5N1 antiviral |
| --- | --- |
| CCOc1ccc2cc(C#N)c(SCC(=O)NC(C)CC)nc2c1 (configuration not stated) | 0.8 |
| COc1ccc(/C=C(\NC(=O)c2ccc(OC)c(OC)c2)C(=O)NCCc2c[nH]c3ccccc23)cc1 | 0.1 |
| O=C(OCc1cn(-c2ccc(Cl)cc2)nn1)c1ccccc1 | 0.3 |
| O=c1c2ccccc2[nH]c(=S)n1CCCN1CCN(C2CCCCC2)CC1 | i |
| COc1ccc(C(C(=O)NC2CCCCC2)N(C(=O)c2cccs2)c2ccc3c(c2)OCO3)cc1 (configuration not stated) | 0.3 |
| CCOC(=O)N1CCN(Cc2nc(-c3ccc(Cl)cc3)no2)CC1 | 0.6 |
| O=C(O)Cn1nnc(-c2cccs2)n1 | 0.2 |
| COc1ccc(S(=O)(=O)NC2CC3CCC2C3)cc1Cl (configuration not stated) | 2.7 |
| CCOC(=O)c1ccc(NC(=O)Cn2nnc(-c3ccccc3)n2)cc1 | i |
| Cc1cc(NC(=O)c2cc(C(C)C)on2)nn1Cc1ccc(Cl)cc1 | i |
| CCCc1n[nH]c(=O)[nH]1 | i |
| O=S(=O)(c1ccc(OCC(O)CN2CCN(c3ccccc3)CC2)cc1)N1CCOCC1 (configuration not stated) | 4.1 |
| COc1ccc(C(=O)NNC(=S)NC(=O)c2ccco2)cc1 | i |
| CS(=O)(=O)N(CC(=O)NC1CC1)c1cccc(F)c1 | 0.3 |
| Cc1ccc(-c2c(C)n([O-])c3c([n+]2=O)CCCC3)o1 | 0.7 |
| O=C(Cn1cnc2c(nnn2Cc2ccccc2)c1=O)N1CCN(c2ccccc2)CC1 | 1.0 |
| COc1ccc(OCC(=O)Nc2cccc(-c3nc4ccccc4[nH]3)c2)cc1 | 0.4 |
| O=C(c1ccccc1)C(Sc1ncn[nH]1)c1ccccc1 (configuration not stated) | 3.2 |
| CC1CCCN(Cc2cnc(Cl)s2)C1 (configuration not stated) | 0.5 |
| O=C(COC(=O)c1cc(S(=O)(=O)NCc2ccccc2)ccc1O)NCc1ccccc1 | 0.1 |
| CCOC(=O)N1CCN(Cc2cn3ccccc3n2)CC1 | 1.6 |
| CCn1c(=O)n(CC)c2cc(S(=O)(=O)N3CCC(c4ccccc4)CC3)ccc21 | 2.4 |
| CCN(CC)CCNC(=O)C(C)c1nn(C)c(=O)c2ccccc12 (configuration not stated) | i |
| COc1ccc(C(C)(C)C)cc1NC(=O)COC(=O)c1cnc(C)cn1 | 1.2 |
| CN1CCN(Cc2nc(N)nc(Nc3ccc4c(c3)OCCO4)n2)CC1 | 0.8 |
| CCc1nnc(SCc2ccc(CSc3nnc(CC)n3N)cc2)n1N | 0.7 |
| CSc1nc(SCC(=O)NC(c2ccccc2)c2ccccc2)c2c3c(sc2n1)CN(C)CC3 | i |
| CCOC(=O)c1[nH]c(C)c(C(=O)N(CC)CC)c1C | 1.0 |
| Cc1[nH]n(-c2ccccc2)c(=O)c1/C=N/c1ccccn1 | i |
| COc1ccc(C(=O)NCc2cn3ccccc3n2)cc1 | 2.4 |
| COc1cc(CN2CCC(C(=O)N3CCCC(C)C3)CC2)cc(Br)c1O (configuration not stated) | 0.8 |
| CCOc1ccccc1OCCOc1cccc(C(F)(F)F)c1 | 0.7 |
| N#Cc1c(-c2ccc(Cl)cc2Cl)nc2n(c1=O)CCS2 | 0.1 |
| CCOC(=O)C1=C(Cn2ccc(C(F)(F)F)n2)NC(=O)NC1c1ccc2c(c1)OCO2 (configuration not stated) | 1.3 |
| CC[n+]1cc(-c2ccccc2)nc(N2CCOCC2)n1 | 0.1 |
| CCOC(=O)CC1=CC(C)(CC(=O)OCC)C(C#N)(C#N)C(N)=C1C#N (configuration not stated) | i |
| NC(=O)[C@H]1CC2(CC(c3cccc(NC(=O)c4ccccc4)c3)=NO2)CN1C(=O)[C@H]1CCC(=O)N1 (some centres not stated) | i |
| Cc1nn(-c2ccc(F)cc2)c(Cl)c1/C=C(\CC(=O)O)c1nc2ccccc2s1 | 0.9 |
| CC(C)(C)C(=O)Cn1c(=N)n(Cc2ccccc2)c2ccccc21 | i |
| CSc1nc(C)c(CCOC(=O)c2cccc(C)c2)c(=O)[nH]1 | i |
| CCn1c(CSc2nc3ccccc3s2)n[nH]c1=S | 0.1 |
| CNC(=O)Nc1cccc(NC(=O)NC)n1 | i |
| c1cc2nnnn2nc1N1CCCCC1 | 1.4 |
| Cc1ccc(C)c(NC(=O)c2nc(-c3ccccc3)n(-c3ccccc3)n2)c1 | 4.9 |
| CCCn1nnnc1SCC(=O)N1CCCc2ccccc21 | 0.2 |
| Cc1ccc(NC(=O)CS(=O)CC(=O)Nc2cccc(C)c2C)cc1F (configuration not stated) | i |
| COc1cc2c(cc1OC)C(/C(C#N)=N\O)=NC(C)(C)C2 | 1.2 |
| O=C(Nc1ccccc1Cl)c1ccccc1Oc1ccc(C(F)(F)F)cc1[N+](=O)[O-] | i |
| COc1cccc2c1OC[C@@H](CO)[C@H]2N(C)C(=O)Nc1ccc(Cl)cc1 | i |
| Cc1ccc(-c2noc(CCC(=O)N(C)c3ccccc3C)n2)cc1 | 0.4 |

(continued)
| molecule | H5N1 antiviral |
| --- | --- |
| Brc1ccc(CSc2nnc(Cc3c[nH]c4ccccc34)o2)cc1 | i |
| O=S(=O)(c1cccc(-c2nc3ccccc3s2)c1)N1CCCC1 | 2.2 |
| Cc1cc(=O)oc(C)c1C(=O)OCC(=O)c1ccccc1 | 0.5 |
| COc1ccc(C(=O)C2CCN(C(=O)c3ccc(C)cc3)CC2)cc1 | 1.5 |
| O=C(Nc1nc(-c2ccccn2)cs1)C1CC1 | i |
| COc1ccccc1CC1/C(=N/O)C2CCN1CC2 (configuration not stated) | i |
| Cc1cc(-c2c(C)n([O-])c(C)c(C)[n+]2=O)ccc1F | 1.2 |
| Cc1ccnc(SCC(=O)N2CCN(c3cccc(Cl)c3)CC2)n1 | i |
| CCC(Sc1nnc(C)s1)C(=O)Nc1nccs1 (configuration not stated) | 0.8 |
| COC(=O)C1CCN(C(=O)C(C)Oc2ccc(Cl)cc2Cl)CC1 (configuration not stated) | 0.6 |
| O=C1C2CCCN2c2ccc(S(=O)(=O)N3CCOCC3)cc2N1Cc1ccccc1F (configuration not stated) | 1.5 |
| CSC1=N/C(=C\c2ccc(Br)o2)C(=O)S1 | 0.2 |
| Cc1ccc2[nH]c3c(NCc4ccco4)ncnc3c2c1 | 8.3 |
| COc1ccc(/C=N/NS(=O)(=O)c2ccc(C)cc2)cc1OC(=O)c1ccc(C)cc1 | i |
| COC(CCN(C)C)(c1ccccc1)c1ccccc1 | 0.3 |
| CCN(CC(F)(F)C(F)F)S(=O)(=O)c1ccc(NC(=O)OC)cc1 | 2.6 |
| COc1ccc(C2CCCN2C(=O)c2cccs2)cc1 (configuration not stated) | 0.4 |
| O=C(O)C(CCCCN1C(=O)c2ccccc2C1=O)N1C(=O)c2ccccc2C1=O (configuration not stated) | i |
| COc1ccc(OC)c(NC(=O)CCN2CCN(Cc3ccccc3)CC2)c1 | 0.3 |
| CC(C)(C)c1nc2scc(-c3ccc(Cl)cc3)c2c(=O)o1 | 0.9 |
| O=C(C1CCC1)N1CCc2cc(S(=O)(=O)NC3CCCc4ccccc43)ccc21 (configuration not stated) | i |
| OCCN1CCN(C(=S)c2ccc(Cl)c(Cl)c2)CC1 | 0.7 |
| Cc1ccccc1S(=O)(=O)c1c(C)cc(C)n(C(C)C)c1=O | 1.1 |
| Cn1c(OCc2cccnc2)nc2c1c(=O)n(Cc1ccccc1)c(=O)n2C | 0.5 |
| Cc1cc(NC(=O)c2ccc(Br)c(S(=O)(=O)N3CCCC3)c2)no1 | 1.2 |
| CC(C)C(C(=O)C=[N+]=[N-])N1C(=O)c2ccccc2C1=O (configuration not stated) | i |
| Cc1noc(NS(=O)(=O)c2ccc(N3CC(O)=C(c4ccccc4)C3=N)cc2)c1C | 0.1 |
| CCCCN(CCCC)S(=O)(=O)c1ccc(SCC(=O)OCC)c([N+](=O)[O-])c1 | i |
| O=C(CSc1n[nH]c(-c2cccs2)n1)N1CCCc2ccccc21 | 1.4 |
| CN1CCN(C(=O)c2ccc(CS(=O)(=O)c3c(Cl)cccc3Cl)o2)CC1 | 0.4 |
| Cc1ccc(S(=O)(=O)N2CCC(N3CCCCCC3)CC2)cc1 | 0.2 |
| Cn1c(SCC(=O)NCc2ccccc2)nc2ccccc21 | 1.6 |
| O=C(Nc1ccon1)c1csc2ccccc12 | 2.2 |
| COc1ccc(C2=NOC(C(=O)Nc3cc(Br)ccc3O)C2)cc1OC (configuration not stated) | i |
| Cn1c(CNC(=O)Nc2ccccc2Cl)nnc1SCc1ccccc1 | i |
